Sfp inh = qHTS Assay for Inhibitors of Bacillus subtilis Sfp phosphopantetheinyl transferase (PPTase) | Biochemical Sfp PPTase activity, qHTS | Potency, µM, inactives show max response, negative = inhibition, usual class: inhibitors | 310,000 tested, 3.5% active | AID 1490, 2009; active = well fitted inhibition curve with a large enough effect; inconclusive = small, poorly fitted or top-dose-only effect, or another doubt; inactive = no such curve, though single readings can be large or run the other way;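 also: the enzyme is Sfp with the accession as filed and its product quenches rhodamine fluorescence; potency is read from the fitted curve at half-maximal effect; 0% = enzyme reaction without inhibitor and -100% = no enzyme wells; top concentration of the series not given in the record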
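Compounds were incubated with enzyme (final 15 nM) for 15 min at room temperature before substrate addition started the reaction. Fluorescence at 525 nm excitation, 598 nm emission was recorded immediately and after 30 minutes.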
gsp agonist = qHTS for Agonist of gsp, the Etiologic Mutation Responsible for Fibrous Dysplasia/McCune-Albright Syndrome: qHTS | 340,000 tested, 0.13% active | Potency, µM (top dose mostly 76.9 µM), inactives show at the highest dose activation (cAMP increase), hits mostly activators | gsp mutant cells, cAMP HTRF, 30 min; control for the full effect not named in the record; active = well fitted activation curve with a large enough effect; inconclusive = small, poorly fitted or top-dose-only effect, or another doubt; inactive = no such curve, though single readings can be large or run the other way; cell line not stated here;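 also: phosphodiesterase inhibitor Ro 20-1724 added with compounds to block cAMP breakdown; potency is read from the fitted curve at half-maximal effect; nearly all actives have a fitted effect of over 60% in size; about a fifth of the inactives were tested at one dose only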
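Cells stably selected in G418 were plated at 2000/well, grown 16-24 hr, then given compounds in DMSO with the PDE inhibitor […] (300 uM solution added) for 30 min at 37C; cAMP was read by HTRF.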
CtBP-E1A blk = qHTS Assay for Inhibitors of the CtBP/E1A Interaction; CtBP / adenovirus E1A interaction (AlphaScreen); AlphaScreen GST-E1A/His-CtBP binding, 1536-well; stronger effect = lower value; control for the full effect not named in the record; activity change, % (no concentration beside the values); 340,000 tested, 0.49% active; AID 651724, 2012; in the data active means activity change below about -65%; inconclusive means about -30% to -65%; inactive means above about -30%; also: % is scaled to controls: 0 for no effect and ±100 for the full control effect; compound concentration not given in the record
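In 5 uL wells, 23 nL compound meets equimolar GST-E1A and His-CtBP (5X stock 125 nM each) for 2 h, 37 °C. Beads (5X, 50 ug/mL) then 1 h, 37 °C, dark.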
Menin-MLL FL inh = qHTS Assay for Inhibitors Targeting the Menin-MLL Interaction in MLL Related Leukemias: Competition With Fluorescein Labeled MLL-derived Peptide. Fluorescence polarization, fluorescein-MLL peptide displacement from menin. FP activity change, % at 61.4 µM. 290,000 tested, under 10 active; inconclusive = falling polarisation curve, or a change in total fluorescence; inactive = total fluorescence flat and polarisation flat or rising; no compound was filed as active; the % refers to the polarisation; negative = inhibition;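 also: % of control where 0% means no effect; inhibitors lower the polarisation; unlabelled MLL peptide was the positive control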
TRPV1 potentiator = HTS Assay for Compounds that Act as Potentiators of the Vanilloid Receptor 1. potentiation, % at 8.33 µM. TRPV1-expressing cells, Fluo-8 calcium influx, capsaicin EC20 potentiation; host cell line not named in the record; control for the full effect not named in the record. 320,000 tested, 0.02% active. AID 540277, 2011. Transient receptor potential cation channel subfamily V member 1 (Homo sapiens), Q8NER1; active means potentiation above 80%; inconclusive means 30% to 80%; inactive means below 30%; also: 0% is about no effect
Target sequence (Q8NER1 whole entry, looked up): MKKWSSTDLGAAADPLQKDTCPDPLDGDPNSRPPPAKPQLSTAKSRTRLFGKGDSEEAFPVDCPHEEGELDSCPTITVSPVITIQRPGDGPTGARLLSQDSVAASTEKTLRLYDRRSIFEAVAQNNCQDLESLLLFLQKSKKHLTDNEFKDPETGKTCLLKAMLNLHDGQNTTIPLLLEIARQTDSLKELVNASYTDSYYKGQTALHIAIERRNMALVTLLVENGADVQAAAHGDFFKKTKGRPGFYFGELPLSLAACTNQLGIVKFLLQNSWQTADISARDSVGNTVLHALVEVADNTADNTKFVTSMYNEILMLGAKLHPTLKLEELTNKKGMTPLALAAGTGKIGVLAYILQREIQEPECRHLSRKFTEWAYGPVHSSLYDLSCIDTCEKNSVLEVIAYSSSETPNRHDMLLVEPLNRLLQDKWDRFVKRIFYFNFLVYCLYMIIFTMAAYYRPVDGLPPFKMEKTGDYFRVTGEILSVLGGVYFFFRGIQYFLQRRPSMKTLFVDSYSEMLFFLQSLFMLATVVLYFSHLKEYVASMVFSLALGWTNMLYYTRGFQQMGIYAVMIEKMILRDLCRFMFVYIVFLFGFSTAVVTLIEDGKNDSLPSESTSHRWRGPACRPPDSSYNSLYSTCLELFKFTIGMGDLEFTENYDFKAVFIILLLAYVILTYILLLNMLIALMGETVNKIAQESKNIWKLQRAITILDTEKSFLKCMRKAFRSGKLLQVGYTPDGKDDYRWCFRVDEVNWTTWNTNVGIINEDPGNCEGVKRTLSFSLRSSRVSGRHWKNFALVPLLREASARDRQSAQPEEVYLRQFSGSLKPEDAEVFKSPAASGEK
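TRPV1-expressing cells were cultured overnight at 35.5C and loaded with Fluo-8 calcium dye for 40 to 90 min at room temperature. After a 10 s baseline, compound was added and calcium influx was read kinetically for 3 min (ex 480/em 520 nm).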
gsp antag = qHTS for Antagonists of gsp, the Etiologic Mutation Responsible for Fibrous Dysplasia/McCune-Albright Syndrome: qHTS | Potency, µM (doses to about 76.9 µM), for inactives: top-dose activity change, negative = inhibition, most hits filed as inhibitors | 340,000 tested, 0.4% active | AID 624288, 2012 | gsp-mutant cells, cAMP HTRF, 30 min; control for the full effect not named in the record; active = falling curve of any shape with a large fitted effect; inconclusive = falling curve, mostly with a smaller effect; inactive = flat or rising curve; cell line not stated here;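 also: intracellular cAMP measured with PDE inhibitor Ro 20-1724 present during compound exposure; potency is read from the fitted curve at half-maximal effect; % is scaled to controls: 0 for no effect and ±100 for the full control effect; nearly all actives have a fitted effect of over 65% in size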
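Cells, 2000/well, grown 16–24 h in DMEM 10% FBS with 0.5 mg/ml G418, then compounds plus […] (300 uM addition stock), 30 min at 37C. cAMP read by HTRF (cAMP-d2 and anti-cAMP antibody-K in lysis buffer) after 30 min RT.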
ClpP mod = qHTS Assay for Activators of ClpP; ATP-dependent Clp protease proteolytic subunit (Bacillus subtilis (strain 168)), P80244; purified B. subtilis ClpP, FRET peptide cleavage, 20 min; Potency, µM (highest dose often 57.5 µM), for inactives: top-dose activity change, negative = active; 340,000 tested, 1.9% active; active = well fitted falling curve with a large enough effect; inconclusive = small, poorly fitted or top-dose-only effect; inactive = no such curve, though single readings can be large or run the other way; also: potency is read from the fitted curve at half-maximal effect; the source files actives as falling curves though it sought activators and does not explain the sign; nearly all actives have a fitted effect of over 65% in size; many hits overshoot -100%
Target sequence (P80244 whole entry, looked up): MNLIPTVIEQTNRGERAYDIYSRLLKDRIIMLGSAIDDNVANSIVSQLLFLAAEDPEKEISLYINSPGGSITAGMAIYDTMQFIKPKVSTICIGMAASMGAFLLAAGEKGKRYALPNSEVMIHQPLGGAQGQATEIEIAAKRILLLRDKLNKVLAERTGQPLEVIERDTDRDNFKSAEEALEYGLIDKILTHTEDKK
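Purified B. subtilis ClpP, 10 microg/mL final in Tris/HCl pH8 with KCl, BSA, glycerol and Tween-20, cleaved an Abz/nitrotyrosine-quenched decapeptide. Fluorescence (ex 320, em 430) was read at 0 and 20 min at room temperature. Delta was normalized to 5.8 microM ADEP and DMSO/no-enzyme controls.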
* hit, by the source's call; ? = inconclusive; . = no result given; & = joins results of further samples; [ ] = another dose, or the depositor's remark.

SMILES	Sfp inh	gsp agonist	CtBP-E1A blk	Menin-MLL FL inh	TRPV1 potentiator	gsp antag	ClpP mod
CC1CCCCC1NC(=O)/C(C#N)=C/c1ccccc1F (stereo not given)	-45%	-9%	1	0.4	-10	-13%	.
COc1ccc(-n2c(SCC(=O)N3CCCCC3)nc3ccccc3c2=O)cc1	0%	19%	6	-8.2	-33	2%	.
O=C(NCCc1c[nH]c2ccccc12)c1cc2sccc2n1Cc1ccccc1	9%	-5%	-11	3.2	8	-34%	9.5%
COC(=O)C(C)(C)ONC(=O)Nc1ccccc1[N+](=O)[O-]	8%	5%	5	-1.6	-7	7%	.
O=C(CCl)NCc1cc(-c2ccc(Cl)cc2)no1	19%	-12%[15.4 µM]	-1	0.5	-17	.	.
COc1ccc(C2CC(=O)C3=C(C2)Nc2ccccc2N(C(=O)CCC(=O)O)C3c2ccc(F)cc2)cc1 (stereo not given)	1%	11%	4	2.7	-14	-5%	-26%
CC(C)C(NC(=O)c1ccc(C(C)(C)C)cc1)C(=O)N1CCCC1 (stereo not given)	5%	-11%[15.4 µM]	-1	2.4	?	4%	.
O=C(Nc1cccnc1Cl)c1cc2c(s1)-c1ccccc1OC2	14%	?	16	2.6	11	6%	3.4%
CN(C)c1nc2ncn(Cc3ccccc3)c2c(=O)[nH]1	9%	13%	6	1.0	2	1%	0.6%
COc1cccc(CC(=O)Nc2ccc(S(=O)(=O)Nc3nc(C)cc(C)n3)cc2)c1	5%	0%[15.4 µM]	0	-2.8	-6	-8%	-26%
O=C(COC(=O)C1CCN(S(=O)(=O)c2cccc3cccnc23)CC1)c1ccc([N+](=O)[O-])cc1	8%	-4%	-3	-1.2	14	-7%	-1.0%
CCCCN(CCCC)C(=S)NC(=O)c1ccccc1Cl	12%	-38%[inhibitor]	3	7.2	-19	-15%	-1.5%
O=C(CN1C(=O)NC2(CCCCC2)C1=O)Nc1cccc(S(=O)(=O)N2CCOCC2)c1	4%	?	.	1.8	0	6%	-0.9%
Cc1ccc(C(=O)Nc2ncc(Cc3ccccc3)s2)o1	3%	?	-4	5.4	8	-4%	-6.6%
Cc1ccc(C(C)C)c(OCC(=O)Nn2c(C)nc3ccccc3c2=O)c1	7%	7%	-2	2.4	14	-10%	3.3%
COc1cc(CC(=O)Nc2cccc(SC)c2)cc(OC)c1OC	22%	-18%	-3	-1.2	-4	-5%	.
CC(C)N1CCc2c(sc(NC(=O)c3ccc(S(=O)(=O)N4CCCCC4C)cc3)c2C(N)=O)C1 (stereo not given)	8%	-39%	-1	.	-7	-9%	0.1%
COc1ccc(CCNC(=O)c2ccc3c(c2)N(Cc2ccc(C)cc2)CCS3)cc1OC	0%	-23%	.	.	7	-11%	4.1%&3.6%
COc1ccc(S(=O)(=O)NC2CCCC2)c(OC)c1	1%	6%	-2	-0.9	10	10%	-4.5%
Cc1ccc(NC(=O)COC(=O)C2CCC(=O)N2)c([N+](=O)[O-])c1 (stereo not given)	?	-12%	12	8.3	3	9%	0.3%
COc1cc(NC(=O)CCc2nnc3ccc(NCc4ccco4)nn23)cc(OC)c1	9%	?	-18	.	3	2%	-3.2%
CCSc1oc(-c2ccco2)nc1S(=O)(=O)c1ccc(C)cc1	-11%	4%[15.4 µM]	2	6.6	0	-6%	-0.6%
CSc1nncn1/N=C/c1ccc([N+](=O)[O-])cc1	19%	4%[15.4 µM]	-5	-1.1	10	.	.
S=c1[nH]c(-c2ccccc2)cn1/N=C/c1cccnc1	45µM*	?	2	2.9	5	-3%	-27%
O=C1CCCc2[nH]nc(-c3cccnc3)c21	12%	-35%[inhibitor]	-3	-2.6	-18	5%	-0.4%
C[N+](C)(C)C(Cc1ccccc1)C(=O)[O-] (stereo not given)	0%	.	-4	0.3	-3	10%	0.0%
C=CCNC(=O)c1oc2ccc(S(=O)(=O)N(CC)CC)cc2c1C	3%	-46%[inhibitor]	39	-0.3	1	3%	0.7%
COc1ccc(CN2CCN(C3CCC3)CC2CCO)c(F)c1 (stereo not given)	5%	-33%[inhibitor]	.	0.0	-1	8%	-2.5%
CC(NS(=O)(=O)c1cccc(C(=O)N(C)Cc2ccc(N3CCOCC3)cc2)c1)c1ccccc1 (stereo not given)	.	-14%	.	.	.	-19%	-1.4%
Cc1nc(SC(C)C(=O)Nc2c(C)n(C)n(-c3ccccc3)c2=O)nc(C)c1C (stereo not given)	.	-22%	.	.	0	-3%	1.1%
Cc1ccc(NC(=O)CO/N=C(\N)c2nonc2N)cc1	10%	-39%[inhibitor]	7	1.4	-19	9%	-1.8%
COc1ccc(S(=O)(=O)Nc2c(C(=O)O)[nH]c3ccccc23)cc1	21%	17%	2	0.9	?	19%	-11%
COc1ccc(CNC(=O)C2(CC3CC(c4ccccc4)=NO3)CCN(C(=O)Cc3ccc(F)cc3)CC2)cc1 (stereo not given)	.	.	-11	.	.	-21%	0.0%
CCOc1ccc(N(C)S(=O)(=O)c2ccc(-c3ccc(=O)[nH]n3)s2)cc1	12%	21%	-15	.	-23	7%	-2.6%
CCN(C(=O)c1cccc(S(=O)(=O)N2CCCCC2)c1)C1CCS(=O)(=O)C1 (stereo not given)	.	0%	-3	.	14	14%	1.3%
O=C(CSc1nc2ccccc2c(=O)n1-c1ccccc1Cl)Nc1cccc(S(=O)(=O)N2CCOCC2)c1	8%	22%	-6	.	1	9%	-6.5%
CC1=C(C(=O)Nc2ccccc2)C(c2ccc(C(C)C)cc2)N2C(=O)CSC2=N1 (stereo not given)	9%	-58%[inhibitor]	12	0.2	-7	-20%	20%
N#CC1(NC(=O)CN2c3cccc4cccc(c34)S2(=O)=O)CCCCC1	.	-16%[15.4 µM]	-1	.	-12	3%	-27%
CC(C)CNC(=S)NC(=O)c1ccc(Cl)cc1	3%	3%	-9	-1.4	-10	-11%	3.8%
Brc1cccc(-c2nnc3sc(CN4CCC5(CC4)OCCO5)cn23)c1	18%	4%	7	3.5	6	11%	-0.1%
CCOc1ccc(S(=O)(=O)N2CCC(C(=O)NCc3ccccc3CN3CCCC3)CC2)cc1	.	-14%	-7	.	-5	15%	0.2%
Cc1nn(CC(=O)NC2C(=O)N3C(C(=O)O)=C(CSc4nnnn4C)CSC23)cc1Br (stereo not given)	?	32%	10	-6.5	2	-7%	.
Cc1cc(C(=O)CN2C(=O)c3cccc(N)c3C2=O)c(C)n1Cc1cccs1	-3%	-19%	21	-3.7	4	2%	-5.4%
O=C(CCc1nc2ccccc2c(=O)[nH]1)Nc1ccc(F)cc1	7%	7%	-14	7.7	22	-3%	-2.6%
O=C(Nc1nnc(C2=COCCO2)o1)c1cccc(F)c1	17%	-7%	-24	.	-8	-6%	-0.3%
CC(C)Cn1c(=O)c2c(nc3n2CCCN3CCc2ccccc2)n(C)c1=O	-7%	13%	?	1.9	-5	?	1.9%
Cc1ccc(-c2noc(C3CCCN(C(=O)c4cccc(F)c4)C3)n2)cc1 (stereo not given)	-1%	-22%	.	3.8	-8	-21%	0.2%
CC1CN(C(=O)COC(=O)/C=C/c2ccc(C(F)(F)F)cc2)CC(C)O1 (stereo not given)	.	-40%[inhibitor]	5	.	2	-9%	0.1%
CC(C)(C)NC(=O)c1nc2nc(-c3ccccc3)cc(C(F)(F)F)n2n1	11%	?	-11	0.3	-2	13%	28µM*
Cc1cccc(N2CN(Cc3ccco3)CNC2=S)c1C	24%	9%	-22	1.5	5	-15%	-2.4%
(further entries)
SMILES	Sfp inh	gsp agonist	CtBP-E1A blk	Menin-MLL FL inh	TRPV1 potentiator	gsp antag	ClpP mod
CCOCc1nnc(NC(=O)COc2ccc3c(c2)OCO3)s1	-8%	37%[15.4 µM]	-1	-1.8	5	6%	.
O=C(NNC(=O)c1ccncc1)Nc1ccc(Cl)cc1	.	-11%	11	.	.	-9%	-2.8%
COCCn1c(CN2CCC(Cc3ccccc3)CC2)nc2c1c(=O)n(C)c(=O)n2C	18%	1%	16	0.4	9	2%	0.3%
CCCCOc1ccc(C(=O)NCC(=O)N2CCN(C(=O)c3ccco3)CC2)cc1	.	1%	7	.	11	6%	-0.8%
O=C(COC(=O)CNC(=O)c1ccccc1F)Nc1ccc2c(c1)OCO2	.	7%	4	.	1	7%	0.6%
CC1(C)C(N(O)C(=O)Nc2ccccc2)N(c2cccc(Cl)c2)C(=O)N1O (stereo not given)	5%	9%	6	-1.6	1	-1%[15.4 µM]	-1.1%
FC(F)(F)c1ccc(Oc2ccc3ccccc3c2Br)nc1	?	0%[15.4 µM]	25	1.1	-6	-17%	.
COc1ccc(C2=CC(=O)CCC2)cc1	.	-4%	5	.	.	8%	-8.2%
CC(C(=O)NCCSCc1cccc(Cl)c1)N(c1ccccc1)S(C)(=O)=O (stereo not given)	-7%	-7%[15.4 µM]	5	-6.5	8	14%	0.2%&-1.2%
CN1CCC(=NNC(=O)C(=O)NCc2ccccc2)CC1	1%	-44%[inhibitor]	7	5.3	-4	1%	0.9%
OC[C@H]1OC(O)[C@@H](O)[C@@H](O)[C@@H]1O (stereo not given in full)	-2%	.	2	2.7	14	-2%	0.4%
CCN(CC)C(=O)Cc1c(O)c2ccccc2[nH]c1=O	-22%	-6%	1	-0.9	4	-3%	3.5%
C=CCn1c(SCC(=O)NC(=O)NC2CCCC2)nnc1C1CCCCC1	4%	-6%	1	-2.8	-11	-3%	-0.7%

Single records (already shown):
`CN1CCC(=NNC(=O)C(=O)NCc2ccccc2)CC1` across the screens: Sfp inh = 1%; gsp agonist = -44%[inhibitor]; CtBP-E1A blk = 7; Menin-MLL FL inh = 5.3; TRPV1 potentiator = -4; gsp antag = 1%; ClpP mod = 0.9%
`CN(C)c1nc2ncn(Cc3ccccc3)c2c(=O)[nH]1` across the screens: Sfp inh = 9%; gsp agonist = 13%; CtBP-E1A blk = 6; Menin-MLL FL inh = 1.0; TRPV1 potentiator = 2; gsp antag = 1%; ClpP mod = 0.6%
